Six1-Eya2 inh: Six1/Eya2 interaction inhibition; Q15475+O00167; AlphaScreen GST-Six1/His-Eya2 binding, biochemical; stronger effect = lower value; control for the full effect not named in the record; activity change, % (concentration not given with the values); hit rate 0.56% among 360,000; AID 651725; in the data active = activity change below about -65%; inconclusive = about -30% to -65%; inactive = above about -30%; further: on the % scale 0 is the no-effect control and ±100 the full control effect
Target sequence (O00167 whole entry, looked up): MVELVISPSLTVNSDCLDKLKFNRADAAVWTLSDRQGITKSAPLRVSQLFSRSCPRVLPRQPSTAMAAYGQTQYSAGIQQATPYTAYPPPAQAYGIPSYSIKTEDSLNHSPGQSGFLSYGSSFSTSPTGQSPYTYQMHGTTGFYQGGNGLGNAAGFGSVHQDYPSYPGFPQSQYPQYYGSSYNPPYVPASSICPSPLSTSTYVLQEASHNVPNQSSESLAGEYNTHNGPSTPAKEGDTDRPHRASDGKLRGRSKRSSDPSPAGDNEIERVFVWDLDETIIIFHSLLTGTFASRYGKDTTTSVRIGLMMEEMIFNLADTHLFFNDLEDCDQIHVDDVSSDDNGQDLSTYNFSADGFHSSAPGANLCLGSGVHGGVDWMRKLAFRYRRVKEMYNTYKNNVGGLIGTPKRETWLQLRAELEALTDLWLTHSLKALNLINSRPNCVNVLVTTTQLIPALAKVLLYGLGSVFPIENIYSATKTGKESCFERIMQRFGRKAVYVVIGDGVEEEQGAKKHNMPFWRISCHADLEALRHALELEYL
Target sequence (Q15475 whole entry, looked up): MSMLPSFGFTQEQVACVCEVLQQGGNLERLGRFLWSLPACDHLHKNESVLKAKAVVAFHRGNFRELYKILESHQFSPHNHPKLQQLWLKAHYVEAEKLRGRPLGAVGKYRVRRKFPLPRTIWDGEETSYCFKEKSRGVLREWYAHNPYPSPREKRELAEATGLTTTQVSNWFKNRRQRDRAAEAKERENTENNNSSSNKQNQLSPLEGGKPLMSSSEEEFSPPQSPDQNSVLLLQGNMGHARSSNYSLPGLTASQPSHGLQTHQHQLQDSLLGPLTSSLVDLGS
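GST-Six1 + His-Eya2 (5X stock: 250/500 nM); Tris pH 8.0, 300 mM NaCl, 0.05% BSA, 0.02% Tween 20; GSH donor/Ni acceptor beads; 1 h 37 °C dark; AlphaScreen readout.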
PINK1 expr mod: modulators of PINK1 expression | PINK1 immunofluorescence, high-content cytometry, 24 h | Potency, µM (top dose mostly 76.6 µM), inactives show at the top dose activation (PINK1 increase), usual class: activators | hit rate 0.2% among 410,000 | AID 624263; active = well fitted activation curve with a large enough effect; inconclusive = small, poorly fitted or top-dose-only effect; inactive = flat fitted curve, though single readings scatter; cell line not stated here;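 further: potency means the concentration at half of the fitted maximal effect; % of control where 0% means no effect; nearly all actives have a fitted effect of over 65% in size; a mitochondrial uncoupler was the plate control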
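Fluorescence from anti-PINK1 antibody, together with nuclear and cell stains, was scanned on a laser-scanning cytometer. Before staining, stable-line cells were incubated 24 hours with compounds at 5 concentrations; primary antibody 12 h at 10 degrees C.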
TRPML1 inh: blocks the human TRPML1 channel; activity change, negative = inhibition, % (no concentration beside the values); TRPML1-inducible cells, Ca2+ dye fluorescence, FDSS; stronger effect = lower value; inhibition of EC80 agonist-evoked calcium signal; Q9GZU1; hit rate 0.02% among 390,000; in the data active means activity change below about -50%; inconclusive means about -30% to -50%; inactive means above about -30%;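 further: stimulus is agonist 54-4 at its EC80 concentration; on the % scale 0 is the no-effect control and ±100 the full control effect; compound concentration not given in the record; the text of the record puts the active cut at -80%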
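Tet-induced TRPML1-DL cells loaded with Ca8 no-wash calcium dye were read kinetically on FDSS. Compound addition was followed by EC80 agonist 54-4 (4 uM final); inhibition was read over 110 s.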
D2 ag: activates the human D2 dopamine receptor; P14416; DiscoveRx PathHunter D2 beta-arrestin, luminescence, 90 min; 100% = 57 uM dopamine signal; activation, % (no concentration beside the values); hit rate 0.084% among 360,000; in the data active = activation above about 40%; inconclusive = about 15% to 40%; inactive = below about 15%; further: compound concentration not given in the record; the text of the record calls up to 30% inactive
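Agonist mode: compounds alone added to overnight-plated D2 PathHunter cells for 90 min at 37 C, with 57 uM final dopamine (EC100) defining full response. Beta-arrestin recruitment detected by chemiluminescent reagent, read after 1 h at ambient temperature.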
CtBP-E1A blk: blocks the CtBP interaction with E1A; AlphaScreen GST-E1A/His-CtBP binding, 1536-well; stronger effect = lower value; control for the full effect not named in the record; activity change, % (no concentration beside the values); hit rate 0.49% among 340,000; in the data active means activity change below about -65%; inconclusive means about -30% to -65%; inactive means above about -30%; further: on the % scale 0 is the no-effect control and ±100 the full control effect; compound concentration not given in the record
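GST-E1A and His-tagged CtBP (125 nM each as 5X stock) were preincubated with pin-transferred compound for 2 h at 37 °C in the dark, then glutathione donor and nickel acceptor beads were added for 1 h before AlphaScreen reading.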
TRPML1 agonist: activates the human TRPML1 channel; activation, % (concentration not given with the values); hit rate 0.12% among 410,000; TRPML1-expressing cells, Ca2+ dye fluorescence, FDSS; host cell line not named in the record; reference of the full effect not given here; Q9GZU1; in the data active = activation above about 50%; inconclusive = about 30% to 50%; inactive = below about 30%; further: 0% is about no effect; the text of the record puts the active cut at 80%
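Tet-induced TRPML1-DL cells, 1,500 per well, cultured overnight, were loaded with a no-wash Ca2+ dye for 45–90 min. Calcium fluorescence was recorded on the FDSS for 110 s after compound addition, before the EC80 agonist (4 uM 54-4) was added.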
The depositor's hits bear a star; ? = inconclusive; / = no result given; & = joins results of further samples; [ ] = remark or other dose.

A first look, 2 compounds:
SMILES,TRPML1 agonist,CtBP-E1A blk,D2 ag,Six1-Eya2 inh,PINK1 expr mod,TRPML1 inh
NS(=O)(=O)c1ccc(NC(=S)NC(=O)c2ccco2)cc1,0.4,19,-6.4,0,2.1%,-30
Cc1cc(-c2nsc(=O)o2)c(S(C)(=O)=O)s1,0.2,-1,-0.2,6,/,0

The list itself, from the first entry:
SMILES,TRPML1 agonist,CtBP-E1A blk,D2 ag,Six1-Eya2 inh,PINK1 expr mod,TRPML1 inh
NS(=O)(=O)c1ccc(NC(=S)NC(=O)c2ccco2)cc1,0.4,19,-6.4,0,2.1%,-30
Cc1cc(-c2nsc(=O)o2)c(S(C)(=O)=O)s1,0.2,-1,-0.2,6,/,0
CCOC(=O)C1CCCN(C(=O)c2sc3nc(-c4ccc(F)cc4)cn3c2C)C1 (stereo not drawn),1.1,3,1.6,0,1.2%,57
Cc1c(C(=O)N2CCN(Cc3ccccc3)CC2)oc2c1C(=O)CCC2,0.5,/,0.5,1,-0.8%,17
CC1=C(C(=O)OCC2CCCCC2)C(c2ccccc2F)CC(=O)N1 (stereo not drawn),0.1,/,/,/,3.1%,-5
CCOc1ccc(NC(=S)NC23CN4CN(CN(C4)C2)C3)cc1,0.0,15,1.0,2,2.3%,13
O=C(Nc1ccccc1C(=O)N1CCCCC1)c1ccccc1C(F)(F)F,0.6,1,-1.8,4,-1.3%,-13
O=C(CCCc1nc2ccccc2s1)Nc1ccc(N2CCOCC2)cc1,1.1,/,-1.9,-6,1.9%,-1
CCc1cccc(Nc2cc(C)nc3nc(C)nn23)c1,1.5,-2,-1.3,-5,-0.8%,25
O=C(NN1CCCCC1)c1ccc(COc2ccc(Cl)cc2)cc1,-0.6,8,2.9,2,0.0%,10
CCOC(=O)C1CCN(C(=O)CN(c2cccc(OC)c2)S(=O)(=O)c2ccccc2)CC1,-0.8,-1,1.2,6,-0.4%,39
CCn1nc(C)c(C(=O)Nc2cc(Oc3ccc(Cl)cc3)cc([N+](=O)[O-])c2)c1C,2.2,-10,-1.0,-13,10µM*,3
COc1cccc(/C=N/c2sc(Cc3ccccc3)c(C)c2C(N)=O)c1O,-0.9,-3,-5.7,-3,0.5%,0
Cc1ccc(CNC(=O)N2CCN(c3ccc(C)cc3)CC2)cc1,-0.6,5,-2.2,-6,-1.7%,-6
O=C(C1CCC(=O)N(C2CCCC2)C1)N1CCN(Cc2cccc(F)c2)CC1 (stereo not drawn),-0.4,5,1.7,3,2.0%,-14
COc1ccc(C(=O)NCCc2ccc(F)cc2)cc1OC,-0.4,0,-2.6,5,1.3%,15
CC(=O)Nc1ccc(NC(=O)c2cc(=O)c3ccc(C)cc3o2)cc1,-1.4,-22,-1.0,3,3.2%,4
O=c1cc(CN2CCc3ccccc3C2)nc2sccn12,0.2,-1,-4.3,-5,-1.5%,-8
O=C(CCNC(=O)c1ccc([N+](=O)[O-])cc1)Nc1ccc(F)cc1F,0.9,8,5.0,2,-2.3%,-22
CCC(C)NC(=O)C1CCC(=O)N(c2ccc3c(c2)OCO3)C1c1ccc(OC)cc1 (stereo not drawn),-0.9,0,-6.2,1,-0.2%,1
O=C(O)c1ccc(N/N=C/c2cccc(C(F)(F)F)c2)cc1,/,-2,-5.9,-2,3.9%,/
O=C(COC(=O)c1cccc(S(=O)(=O)N2CCOCC2)c1)NCc1ccccc1,0.2,-2,-1.5,-13,-0.3%,1
Cc1c(C(=O)Nc2cccc(C(F)(F)F)c2)sc2nc3n(c(=O)c12)CCC3,-0.3,/,/,/,1.0%,-11
COc1cc2nc3n(c(=O)c2cc1OC)-c1ncccc1C(=O)NC3Cc1ccccc1 (stereo not drawn),1.6,-6,-1.1,-1,-1.6%,-8
CCCCCC(=O)NC(=S)Nc1ccc2oc(=O)ccc2c1,-1.3,-1,-4.7,5,3.9%,18
ClCc1nnc(-c2ccccc2)o1,0.0,/,-3.4,0,13%,11
Cc1c(C(=O)NCc2cccc([N+](=O)[O-])c2)sc(=O)n1Cc1ccccc1F,-0.8,-7,-1.9,-8,1.9%,/
C[C@@H]1CN([C@H](C)CO)C(=O)CCCn2cc(nn2)CO[C@H]1CN(C)S(=O)(=O)c1ccc(Oc2ccccc2)cc1,-0.5,4,-8.6,1,0.5%,-10
O=C(C[C@@H]1C/C=C\C[C@@H](Cc2ccc(F)cc2)C(=O)OCCNC1=O)N[C@H](CO)Cc1ccccc1,-1.0,5,2.3,2,0.4%,5
O=C(Oc1ccccc1C(=O)Nc1ccccc1)c1ccc(Br)c([N+](=O)[O-])c1,-0.5,6,-5.7,-8,3.3%,-3
COc1ccccc1CNS(=O)(=O)c1c(C)nc2sccn2c1=O,0.0&-0.9,6,-2.1,-4,0.7%&0.5%,-12&22
COC(=O)CN(c1ccc2c(c1)OCO2)S(=O)(=O)c1c(C)[nH]c(=O)[nH]c1=O,0.3,0,-5.8,2,1.6%,-7
NC(=O)CCS(=O)(=O)CCN1CCN(S(=O)(=O)c2ccc3c(c2)CCC3)CC1,0.3,-8,-9.0,8,-1.3%,18
CCOC(=O)c1ccc(C(=O)OCC)nc1,1.5,-12,2.2,1,-2.6%,-6
CCOC(=O)CN1C(=O)C(O)(CC(=O)c2cccc(OC)c2)c2ccccc21 (stereo not drawn),-1.5,3,-1.1,2,1.3%,8
COc1ccc(/C=N/Nc2nc(-c3ccc(C)cc3)c(NC(C)=O)s2)cc1,2.5,0,13,-12,1.3%,0
COc1ccc2c(c1)CCCC(Br)C2=O (stereo not drawn),-0.1,-3,7.3,-1,1.7%,1
Fc1ccc(-c2nc3ccccc3[nH]2)cc1,3.4,-17,1.1,-3,1.2%,-17
Cc1nc(C)c(C(=O)OCC(=O)Nc2cccc(C)c2C)s1,0.0,4,-4.1,3,0.6%,-11
COc1cc(C(=O)NCCOc2ccc(C)c(C)c2)cc(OC)c1OC,0.5,-3,-7.9,2,2.1%,-1
CS(=O)(=O)N1CCC(NC(=O)Cc2ccccc2)CC1,-0.1,-19,-3.4,-11,-2.5%,48
Clc1ccc(-c2cn(-c3nc4ccccc4s3)nn2)cc1,-0.6,6,/,-9,3.9%,/
CCCCCC1CCC(C(=O)O)CC1 (stereo not drawn),-0.1,14,-4.1,-3,-2.1%,1
CC(C)Oc1ccc(C2CC(=O)N(c3ccc(N(C)C)cc3)C2=O)cc1 (stereo not drawn),-0.3,-1,-2.5,-4,0.5%,6
N=C1/C(=C\c2ccc(SCc3ccco3)o2)C(=O)N=C2SC=NN12,9.8,2,-7.8,?,1.3%,-15
O=[N+]([O-])c1ccc(COP(=O)(O)OCc2ccc([N+](=O)[O-])cc2)cc1,3.1&-0.2,2&-8,-2.0&-7.2,6&12,0.9%&3.6%,10
CCC(C)NC(=O)c1cc2c(=O)[nH]c3ccc(C)cc3c2s1 (stereo not drawn),-0.4,-16,-2.2,-3,8.0%,-10
Cn1ccc(-c2ccccc2)n1,1.3,-4,6.8,8,0.3%,-7
CC(C)COc1nc2ccccc2nc1C(C#N)C(=O)NC1CCCCC1 (stereo not drawn),-0.3,7,0.4,14,4.9%,-4
COc1ccc(C2=NOC(C(=O)Nc3c(C)n(C)n(-c4ccccc4)c3=O)C2)cc1OC (stereo not drawn),-0.3,2,-4.6,5,0.4%,5
CC(NC1CCCC1)C(=O)Nc1ccccc1-c1ccccc1 (stereo not drawn),-0.1,-5,-1.6,2,-1.2%,-1
CCCNC(=O)C1(C)CCN(Cc2ccc(OCc3ccccc3)cc2)C1 (stereo not drawn),-0.5,-7,3.6,4,0.2%,/
CC(=O)N1c2ccccc2C(=O)C1N1CCN(c2cc(Cl)ccc2C)CC1 (stereo not drawn),1.8,/,/,/,0.4%,-25
CCCCc1ccc(-c2nn[nH]n2)nc1,-0.4,?,-5.1,-81*,1.2%,-21
Cn1c2c(sc1=O)CCC2,-0.2,0,-4.3,-2,-3.1%,18
O=C(CSc1ncnc2ccccc12)Nc1ccc2c(c1)OCO2,0.0,-2,-2.3,-4,2.9%,-15
COc1ccc(Cl)cc1/C=C(\C#N)C(N)=O,0.2,-6,-2.3,2,0.4%,-1
COc1ccc(Nc2nc(Nc3ccc(OC)cc3)nc(-n3[nH]c(=O)c(C)c3C)n2)cc1,-0.3,?,-8.8,?,3.8%,-9
Fc1ccccc1N1CCN(c2nnnn2-c2ccccc2)CC1,/,-7,-6.1,-1,0.6%,/
O=C(Nc1ccncc1)Nc1cccc(Cl)c1,-0.3,0,8.0,-1,0.1%,-6

Four entries from above in a different format.
Molecule: CCCNC(=O)C1(C)CCN(Cc2ccc(OCc3ccccc3)cc2)C1 (stereo not drawn)
- TRPML1 agonist = -0.5
- CtBP-E1A blk = -7
- D2 ag = 3.6
- Six1-Eya2 inh = 4
- PINK1 expr mod = 0.2%
- TRPML1 inh = /

Molecule: CCCCCC1CCC(C(=O)O)CC1 (stereo not drawn)
- TRPML1 agonist = -0.1
- CtBP-E1A blk = 14
- D2 ag = -4.1
- Six1-Eya2 inh = -3
- PINK1 expr mod = -2.1%
- TRPML1 inh = 1

Molecule: Cn1ccc(-c2ccccc2)n1
- TRPML1 agonist = 1.3
- CtBP-E1A blk = -4
- D2 ag = 6.8
- Six1-Eya2 inh = 8
- PINK1 expr mod = 0.3%
- TRPML1 inh = -7

Molecule: CS(=O)(=O)N1CCC(NC(=O)Cc2ccccc2)CC1
- TRPML1 agonist = -0.1
- CtBP-E1A blk = -19
- D2 ag = -3.4
- Six1-Eya2 inh = -11
- PINK1 expr mod = -2.5%
- TRPML1 inh = 48

(continued)
SMILES,TRPML1 agonist,CtBP-E1A blk,D2 ag,Six1-Eya2 inh,PINK1 expr mod,TRPML1 inh
O=CNc1cc(-c2cccc(F)c2)cn2c(-c3ccc(F)cc3)cnc12,-0.6,-3,-8.2,-13,0.5%,/
COc1cc(/C=C/c2nc(C#N)c(NC3CCCCC3)o2)cc(OC)c1OC,3.0,/,/,/,4.6%,7
COc1ccc(C2CC(c3cccs3)Nc3nnnn32)cc1 (stereo not drawn),0.3,1,-2.2,-2,-0.8%,62
Cc1nc(Nc2cccc(O)c2)c2oc3ccccc3c2n1,5.3,/,2.8,-22,1.6%,11
CCC(=O)NNc1nc2c(F)cccc2s1,-0.3,/,1.3,-4,-1.0%,-7
COC(=O)CSc1nnc(CNC(=O)c2ccc(S(=O)(=O)N(C)C)cc2)n1C,-0.1,3,3.1,9,0.5%,-10
O=C(N/N=C/c1c[nH]c2ccccc12)c1cc(-c2ccc(-c3ccccc3)cc2)n[nH]1,-0.6,-2,1.6,-8,-3.8%[38.3 µM],7
COc1cc(C(=O)Nc2nnc(CC(C)(C)C)s2)c([N+](=O)[O-])cc1OC,0.7,0,-6.3,7,7.3%,-5

Source: PubChem BioAssay
